# Source: PubChem (Fisher Drug Discovery Resource Center)
# NPYLR7 ag: agonists of mosquito NPYLR7 receptor, primary screen, cell-based, Aedes aegypti, calcium fluorescence, mosquito biting behavior; AID 1259423, 2018; HEK293T NPYLR7/Galpha15, GCaMP6s calcium fluorescence; activation, % at 10 µM; 270,000 tested, 0.15% active; in the data active means activation above about 40%;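 further: 0% = vehicle and 100% = reference agonist at the receptor; some compounds past the cut are filed as inactive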
# NPYLR7 ag max-min: second read-out of NPYLR7 ag, no call of its own (marks repeat the call); activation, %; measured here: Max-Min RFU normalised activation; some inactives read as strong as hits;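 span of the calcium signal over five minutes; 0% = vehicle and 100% = native peptide agonist; compound fluorescence can raise it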
# Active calls of the source: *; & = joins results of further samples.
# Preview:
# Each structure is followed by: NPYLR7 ag max-min, NPYLR7 ag
[1] COc1cccc(-c2ccc(C(=O)N3CCCn4cncc4C3)o2)c1
 : 12.9, 20.1
[2] Cc1cc(C)n(-c2cc(NCCNS(C)(=O)=O)nc(C)n2)n1
 : -12.9, -8.0

# All compounds of this part (from the top)
# Each structure is followed by: NPYLR7 ag max-min, NPYLR7 ag
[1] COc1cccc(-c2ccc(C(=O)N3CCCn4cncc4C3)o2)c1
 : 12.9, 20.1
[2] Cc1cc(C)n(-c2cc(NCCNS(C)(=O)=O)nc(C)n2)n1
 : -12.9, -8.0
[3] CCCCC(CC)COCCCNC(=O)c1cc(-c2ccc3c(c2)OCO3)nc2ccccc12 (stereo unspecified)
 : 0.8, 2.6
[4] O=C(CCc1ncc(-c2ccccc2)o1)N1CCCC1c1ccccc1 (stereo unspecified)
 : 3.0, -0.7
[5] COCCN(Cc1ccc(OS(=O)(=O)c2ccc(F)cc2)cc1)S(=O)(=O)c1c(C)cc(C)cc1C
 : -16.7, -10.9
[6] COc1ccc(S(=O)(=O)NC(Cc2ccccc2)c2nnc(SCc3ccc(F)cc3)n2-c2cc(Cl)ccc2C)cc1 (stereo unspecified)
 : 8.3, 4.6
[7] CC(=O)C(C)n1c(=O)c2c(nc3n(-c4ccc(C)c(Cl)c4)c(C)c(C)n23)n(C)c1=O (stereo unspecified)
 : 5.2, -0.9
[8] C=CCN1C(=O)C(=Cc2c(NCCCO)nc3ccccn3c2=O)SC1=S
 : 0.8, 2.0
[9] CCOC(=O)CNC(=O)N(Cc1cccc(OS(=O)(=O)c2cccc(C(F)(F)F)c2)c1)C(C)C
 : 9.8, -3.4
[10] Cc1[nH]c2ccccc2c1N=Nc1ccc(F)cc1
 : -0.9, 1.5
[11] CO[C@H]1CN(C(=O)Cn2c(C3CC3)nc3ccccc32)CC[C@H]1N
 : -2.4, -1.2
[12] O=C(CCN1CCCO1)N1CCOC(CC2CCCCC2)C1 (stereo unspecified)
 : 2.2, 2.8
[13] O=S(=O)(c1cccc(Cl)c1)N1CCC(n2nc(-c3ccccc3)cc2-c2ccccc2)CC1
 : 8.9, 20.3
[14] O=C(O)c1cc(S(=O)(=O)Nc2cc(Cl)ccc2F)cc2c1OCCO2
 : 10.3, 12.7
[15] N#Cc1ccc(CNC(c2ccccc2)c2ccccc2)cc1
 : 3.1, 7.9
[16] CCCCOc1ccc(/C=C2/N=C(c3ccc(C)c([N+](=O)[O-])c3)OC2=O)cc1
 : 0.0, -2.2
[17] Cc1cccc(N=Nc2cnc(N)s2)c1
 : 0.3, 1.2
[18] CCCNC(=O)CN1CCC(NCc2cn(C)nc2C(C)C)CC1
 : 1.2, 2.5
[19] Cc1ccc(F)c2c1CCCN2C(=O)c1ccc(-n2cncn2)cc1
 : 4.8, 5.4
[20] CCOC(=O)C(C)(N)Cc1ccccc1 (stereo unspecified)
 : 14.4, 17.4

# Along the list, from the results shown:
# Compounds 11–20 in NPYLR7 ag, in turn: -1.2, 2.8, 20.3, 12.7, 7.9, -2.2, 1.2, 2.5, 5.4, 17.4
# Compounds 11–20 in NPYLR7 ag max-min, in turn: -2.4, 2.2, 8.9, 10.3, 3.1, 0.0, 0.3, 1.2, 4.8, 14.4

# Next section:
# Each structure is followed by: NPYLR7 ag max-min, NPYLR7 ag
[21] CCOC(=O)C1CCN(C(=O)c2ccc(NC(C)C)nc2)CC1
 : -20.2, -6.8
[22] CCOC(=O)c1c(CN2CCN(CCO)CC2)n(-c2ccccc2)c2cc(Br)c(O)cc12
 : -16.3, -9.8
[23] COc1cc2c(cc1OC)CN(C(=O)CCl)CC2
 : -8.5, -4.6
[24] Clc1ccccc1Nc1cc2c(cn1)ncn2Cc1cccnc1
 : -1.6, -4.0
[25] O=C(/C=C/c1ccccc1)Nc1ccc(C2SCC(=O)N2c2ccc3c(c2)CCC3)cc1 (stereo unspecified)
 : 17.2, 13.8
[26] CCc1csc(CNC2CCSC2)n1 (stereo unspecified)
 : 12.6, 1.8
[27] Cc1ccc(SCC(=O)N(C)CC(=O)Nc2ccc(N3CCOCC3)cc2)c(C)c1
 : 16.0, 11.7
[28] CC1(NC(=O)Cc2ccc3c(c2)CCCC3)CCS(=O)(=O)C1 (stereo unspecified)
 : 8.1, 6.1
[29] Cc1ccc(C(=O)Nc2cc(C)nn2-c2ccccc2)cc1
 : 5.3, 2.4
[30] Cc1nnc(C(C)NC(c2ccc(C3CCCCC3)cc2)C(C)C)o1 (stereo unspecified)
 : -3.7, -3.0
[31] CCOc1ccccc1NC(=NS(=O)(=O)c1ccc(C)cc1)Nc1nc(C)cc(C)n1
 : 0.0, -6.1
[32] O=C(Nc1ccc(N2CCCCC2)cc1)c1ccc[nH]c1=O
 : -0.3, 1.8
[33] CCNc1c(C(=O)O)ccc2c1C(=O)c1ccccc1C2=O
 : 5.8, 7.6
[34] CC(C)CCC1(C2CCN(C(=O)Cc3cc(F)cc(F)c3)CC2)NC(=O)N(Cc2ccccn2)C1=O (stereo unspecified)
 : 8.7, 20.2
[35] CCn1cc(S(=O)(=O)N2CCCC2c2ccccn2)c(C)n1 (stereo unspecified)
 : 10.8, 10.9
[36] CCOc1ncccc1NC(=O)N1CCCC1C(C)C (stereo unspecified)
 : 0.4, 4.3
[37] CN1CC2(CCN(C(=O)CCc3n[nH]c4c3CCCC4)C2)OC1=O (stereo unspecified)
 : 6.4, 7.9
[38] COc1ccc(CN2CCC=C(C(C)NC(C)=O)C2)cc1 (stereo unspecified)
 : 3.2, 4.9
[39] O=C(Cn1cc(-c2nnc(-c3ccccc3)o2)c2ccccc21)Nc1ccccc1
 : 6.7, 2.2
[40] CC(C)=CCC/C(C)=C/CNC(=O)Nc1cccc(F)c1
 : -12.2, -4.6
[41] O=C(Nc1ccc(Cl)cc1)Nc1cccc(NC(=O)c2ccco2)c1
 : 19.1, 0.4
[42] O=C(CC1SC(=Nc2ccccc2)N(c2ccccc2)C1=O)Nc1cccc(C(=O)O)c1 (stereo unspecified)
 : -4.0, -1.1
[43] Cc1nnc2sc(SCc3ccc(C(F)(F)F)cc3)nn2c1=O
 : 3.9, 4.8
[44] CNc1ncc(CN(C)C(=O)c2ccccc2C2CCNC2)cn1 (stereo unspecified)
 : 15.3, 13.6
[45] Cc1nnnn1C(Cc1ccccc1)C(=O)NCc1ccc(C)n1C (stereo unspecified)
 : 11.7, 15.4
[46] Cc1ccc(Cl)cc1Nc1ncccc1C(=O)NCc1ccco1
 : -8.6, -4.3
[47] Cc1ccc(-n2ncc3c(C)nn(CC(=O)Nc4ccc5c(c4)OCCO5)c(=O)c32)cc1C
 : 2.7, 7.5
[48] COc1cc(C(=O)NCCN2CCOC2=O)ccc1OC1CCN(C2CCCC2)CC1
 : 0.4, 4.0
[49] CC(C(=O)NCC1(c2ccc(Cl)cc2)CCC1)n1cncn1 (stereo unspecified)
 : -0.9&6.3, 1.4&7.1
[50] C/C=C(\C)C(=O)N(CC1CCN(Cc2ccccc2F)CC1)CC1CCCO1 (stereo unspecified)
 : -5.7, -1.1
[51] COC(C)c1noc(-c2ccncc2Cl)n1 (stereo unspecified)
 : 9.0, 11.7
[52] CCc1nn2c(NC3CCCC3)cc(C)nc2c1-c1ccccc1
 : -7.3, -3.2
[53] CC(=O)Nc1ccccc1C(=O)N1CCN(c2cccc(Cl)c2)CC1
 : -14.0, -9.0
[54] OCC1(O)CCCN(Cc2cccc(Cn3cccn3)c2)CC1 (stereo unspecified)
 : -6.8, -0.4
[55] COc1ccc(CCOc2nc(-c3ccc(OC)cc3)n(-c3ccc(NC(=O)C4CCC4)cc3)n2)cc1
 : 22.3, 20.2
[56] c1cnc2nc(-c3ccsc3)c(NC3CCCC3)n2c1
 : -4.1, 2.1
[57] Cc1nnc2ccc(N3CCCC3c3cccc(N(C)C)c3)nn12 (stereo unspecified)
 : 0.3, 1.2
[58] COC(=O)c1cc(NC(=O)c2cc(-c3ccccc3)nc3ccccc23)cc(C(=O)OC)c1
 : 1.5, 4.4
[59] O=C(NCCNC(=O)C1CCN(C(=O)c2ccc3ccccc3c2)CC1)c1ccccc1
 : 15.0, 2.1
[60] CCN(CC)c1cc(C)nc(Nc2ccc(NC(=O)C3CCCCC3)cc2)n1
 : 3.7, 7.7

# Reprinted at random: 7 records from the list
# Each structure is followed by: NPYLR7 ag max-min, NPYLR7 ag
[59] O=C(NCCNC(=O)C1CCN(C(=O)c2ccc3ccccc3c2)CC1)c1ccccc1
 : 15.0, 2.1
[53] CC(=O)Nc1ccccc1C(=O)N1CCN(c2cccc(Cl)c2)CC1
 : -14.0, -9.0
[55] COc1ccc(CCOc2nc(-c3ccc(OC)cc3)n(-c3ccc(NC(=O)C4CCC4)cc3)n2)cc1
 : 22.3, 20.2
[51] COC(C)c1noc(-c2ccncc2Cl)n1 (stereo unspecified)
 : 9.0, 11.7
[57] Cc1nnc2ccc(N3CCCC3c3cccc(N(C)C)c3)nn12 (stereo unspecified)
 : 0.3, 1.2
[60] CCN(CC)c1cc(C)nc(Nc2ccc(NC(=O)C3CCCCC3)cc2)n1
 : 3.7, 7.7
[56] c1cnc2nc(-c3ccsc3)c(NC3CCCC3)n2c1
 : -4.1, 2.1

# (next part)
# Each structure is followed by: NPYLR7 ag max-min, NPYLR7 ag
[61] COCCOC(=O)N1C2CCC(O)(CC2)C1COC (stereo unspecified)
 : 12.0, 2.7
[62] c1cncc(N=c2scc(-c3cccs3)n2C2CCCC2)c1
 : 1.7, 5.7
[63] C/C(=C/C(=O)NCCS(=O)(=O)NCc1ccc(F)cc1)C1CC1
 : 0.7, 1.9
[64] CCNC(=O)NCCC1CN(C2Cc3ccccc3C2)CCO1 (stereo unspecified)
 : -0.1, 1.6
[65] CSc1ccc(-c2ccc3c(c2)OCO3)nn1
 : -1.1, -0.9
[66] c1ccc(-c2nc(N3CCCC(N4CCOCC4)C3)c3ccccc3n2)cc1 (stereo unspecified)
 : -0.7, 4.1
[67] CNC(=S)N=Nc1c(O)[nH]c2ccc([N+](=O)[O-])cc12
 : -2.3, -1.9
[68] Cc1ccc(CN(Cc2ccc(F)cc2)C(=O)CNCCN2CCOCC2)o1
 : 9.7, 0.9
[69] Cc1ccc(-c2nnc3sc(-c4cccnc4)nn3c2=O)cc1
 : 2.9, 2.1
[70] Cc1cc(C)c(C)c(S(=O)(=O)N2CCC(c3cn(Cc4ccc(C(F)(F)F)cc4)c4ccccc34)CC2)c1C
 : -2.9, 2.9
[71] CN1C(=O)COCc2cc(-c3ccc4ccccc4c3)ccc21
 : 1.3, 5.6
[72] Cc1ccc(S(=O)(=O)NC2CC2)cc1C(=O)N(C)C1CCCCNC1=O (stereo unspecified)
 : -6.2, 1.4
[73] Cc1ccnn1CCC(=O)NC1CC(=O)N(C2CCCCCC2)C1 (stereo unspecified)
 : 1.2, 7.4
[74] CCC(=O)c1csc2ccc(Br)cc12
 : 1.6, 7.5
[75] CC(C)(C)c1noc(CSc2n[nH]c(=O)n2CCc2ccccc2)n1
 : 4.4, 1.7
[76] Cc1nc2c(C)cccn2c(=O)c1NC(=O)c1cccc(Cl)c1
 : 0.7, 0.0
[77] CCOC(=O)c1cnc(-c2ccccc2)nc1NCCc1cccs1
 : -13.3, -6.8
[78] CN(C)S(=O)(=O)c1ccc(COc2cccc(Cl)c2)o1
 : 3.5, 8.6
[79] Cc1ccc(CN(CCc2c[nH]c3ccccc23)C(=O)CN(C(C)C)S(=O)(=O)c2cc(Cl)ccc2Cl)cc1
 : 16.1, 16.6
[80] CC(=O)Cn1c(=O)c2c(nc3n2CCCN3c2ccc(C)cc2)n(C)c1=O
 : 8.0, 16.2
[81] Cc1cc(Cl)c2oc(C(=O)NCC(C)(C)N3CCOCC3)c(C)c2c1
 : 9.4, 17.2
[82] CCc1nc2ccc(C(=O)NCCc3c[nH]c4ccccc34)cn2c1N(C)Cc1ccc(N(C)C)cc1
 : -8.0, 3.7
[83] Cc1cccc(-n2c(SCc3ccccc3C#N)nnc2-c2ccc(F)cc2)c1
 : -8.3, -7.5
[84] CCC1CCN(C(=O)c2cc(CN(C)CCc3ccccc3)on2)CC1
 : -10.8, -7.1
[85] Cc1ccccc1OCC(O)CN(Cc1ccc(F)cc1)Cc1cccn1C (stereo unspecified)
 : 13.1, 10.5
[86] CCCCCCc1ccc(C(=O)Oc2ccc(-c3nc4ccc(Br)cn4c3NCc3ccccc3)cc2)cc1
 : 4.8, -2.4
[87] O=C1NC(=O)C2C1C(c1ccccc1O)NN2Cc1ccccc1 (stereo unspecified)
 : -16.2, -8.4
[88] Cc1nn(C)c(C)c1CC(C)NC(=O)NCC1CN(C)CCN1C (stereo unspecified)
 : -0.4, 2.3
[89] Cc1ccc(C)c(S(=O)(=O)C2(C(=O)N3CCN(c4nccs4)CC3)CCCC2)c1
 : -2.1, -1.5
[90] COc1ccc(-c2csc(NC(=O)c3ccccn3)n2)cc1CC#N
 : 0.2, 0.0
[91] C=CCN1C(=O)C(Cc2ccc(OC)cc2)S/C1=N\N=C/c1ccco1 (stereo unspecified)
 : 2.9, 2.1
[92] CC(C)c1cc(N2CCCCC2)n2ncc(-c3ccccc3)c2n1
 : -4.9, -4.0
[93] CN1CCN(NC(=O)CN2CCN(c3cccc(Cl)c3)C2=O)CC1
 : -9.7, -5.5

# One compound at a time (already shown).
# `CO[C@H]1CN(C(=O)Cn2c(C3CC3)nc3ccccc32)CC[C@H]1N` is listed with NPYLR7 ag max-min = -2.4; NPYLR7 ag = -1.2
# `CCc1nc2ccc(C(=O)NCCc3c[nH]c4ccccc34)cn2c1N(C)Cc1ccc(N(C)C)cc1` is listed with NPYLR7 ag max-min = -8.0; NPYLR7 ag = 3.7

# A portion of the library; the hit share may differ from the screen's.
